Compound activity from PubChem.
CtBP-E1A blk – qHTS Assay for Inhibitors of the CtBP/E1A Interaction; CtBP / adenovirus E1A interaction (AlphaScreen); AlphaScreen GST-E1A/His-CtBP binding, 1536-well; hits give low values; control for the full effect not named in the record; activity change, % (test concentration not listed); 340,000 compounds, 0.49% hits; in the data active means activity change below about -65%; inconclusive means about -30% to -65%; inactive means above about -30%; note: % is set by controls: 0 for no effect and ±100 for the full control effect
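GST-E1A and His-tagged CtBP (125 nM each as 5X stock) were preincubated with pin-transferred compound for 2 h at 37 °C in the dark, then glutathione donor and nickel acceptor beads were added for 1 h before AlphaScreen reading.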
gsp antag – qHTS for Antagonists of gsp, the Etiologic Mutation Responsible for Fibrous Dysplasia/McCune-Albright Syndrome: qHTS | Potency, µM (highest dose often 76.9 µM), without a hit: at the highest dose activity change, negative = inhibition, most hits filed as inhibitors | 340,000 compounds, 0.4% hits | gsp-mutant cells, cAMP HTRF, 30 min; control for the full effect not named in the record; active = falling curve of any shape with a large fitted effect; inconclusive = falling curve, mostly with a smaller effect; inactive = flat or rising curve; cell line not stated here;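 note: intracellular cAMP measured with PDE inhibitor Ro 20-1724 present during compound exposure; potency is the fitted concentration of half-maximal effect; % is set by controls: 0 for no effect and ±100 for the full control effect; nearly all actives have a fitted effect of over 65% in size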
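G418-selected cells were plated in DMEM/10% FBS for 16-24 h at 37C, then treated with compounds plus the PDE inhibitor […] (300 uM solution added) for 30 min at 37C. Intracellular cAMP was measured by HTRF after 30 min lysis at room temperature.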
gsp ag – qHTS for Agonist of gsp, the Etiologic Mutation Responsible for Fibrous Dysplasia/McCune-Albright Syndrome: qHTS. AID 624287, 2012. Potency, µM (series often up to 76.9 µM), for the others: at the top dose activation (cAMP increase), most hits filed as activators. 340,000 compounds, 0.13% hits. gsp mutant cells, cAMP HTRF, 30 min; control for the full effect not named in the record; active = well fitted activation curve with a large enough effect; inconclusive = small, poorly fitted or top-dose-only effect, or another doubt; inactive = no such curve, though single readings can be large or run the other way; cell line not stated here;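 note: phosphodiesterase inhibitor Ro 20-1724 added with compounds to block cAMP breakdown; potency is the fitted concentration of half-maximal effect; nearly all actives have a fitted effect of over 60% in size; about a fifth of the inactives were tested at one dose only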
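Cells stably selected in G418 were plated at 2000/well, grown 16-24 hr, then given compounds in DMSO with the PDE inhibitor […] (300 uM solution added) for 30 min at 37C; cAMP was read by HTRF.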
D2 potentiator – Beta-Arrestin HTS for Positive Allosteric Modulators of the Human D2 Dopamine Receptor: Potentiators | D(2) dopamine receptor (Homo sapiens), P14416 | DiscoveRx D2 beta-arrestin cells, luminescence, 90 min; 100% = 57 uM dopamine signal | potentiation, % (test concentration not listed) | 360,000 compounds, 0.23% hits; active = potentiation of 50% or more; inconclusive = 30% to 50%; inactive = 30% or less;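 note: compound concentration not given in the record; tested on top of an EC20 dose of dopamine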
Target sequence (P14416 whole entry, looked up): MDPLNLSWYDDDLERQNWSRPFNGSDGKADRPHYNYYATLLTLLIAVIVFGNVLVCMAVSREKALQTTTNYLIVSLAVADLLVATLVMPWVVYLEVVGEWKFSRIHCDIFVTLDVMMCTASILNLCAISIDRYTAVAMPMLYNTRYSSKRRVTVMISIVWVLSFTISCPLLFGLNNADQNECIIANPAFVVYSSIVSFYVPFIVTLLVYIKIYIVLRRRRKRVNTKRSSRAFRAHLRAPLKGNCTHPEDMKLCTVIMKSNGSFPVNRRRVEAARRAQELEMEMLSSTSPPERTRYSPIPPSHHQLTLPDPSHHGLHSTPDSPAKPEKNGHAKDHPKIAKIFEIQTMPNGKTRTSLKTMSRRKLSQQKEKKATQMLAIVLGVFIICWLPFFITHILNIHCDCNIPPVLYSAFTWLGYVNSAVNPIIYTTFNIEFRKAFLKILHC
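PathHunter beta-arrestin assay in DiscoveRx D2 cells. Compounds were added with an EC20 of dopamine (50 nM final) for 90 min at 37 deg C. Luminescence was read 1 h after detection reagent, with 57 uM dopamine as the EC100 control.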
D2 agonist – Beta-Arrestin HTS for Positive Allosteric Modulators of the Human D2 Dopamine Receptor: Agonists; D(2) dopamine receptor (Homo sapiens), P14416; DiscoveRx PathHunter D2 beta-arrestin, luminescence, 90 min; 100% = 57 uM dopamine signal; activation, % (concentration not given with the values); 360,000 compounds, 0.084% hits; AID 624465, 2012; in the data active = activation above about 40%; inconclusive = about 15% to 40%; inactive = below about 15%; note: the text of the record calls up to 30% inactive
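Agonist mode: compounds alone added to overnight-plated D2 PathHunter cells for 90 min at 37 C, with 57 uM final dopamine (EC100) defining full response. Beta-arrestin recruitment detected by chemiluminescent reagent, read after 1 h at ambient temperature.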
Six1-Eya2 blk – qHTS Assay for Inhibitors of the Six1/Eya2 Interaction | Homeobox protein SIX1 (Homo sapiens) + Protein phosphatase EYA2 (Homo sapiens), … | AlphaScreen GST-Six1/His-Eya2 binding, biochemical; hits give low values; control for the full effect not named in the record | activity change, % (no concentration beside the values) | 360,000 compounds, 0.56% hits | AID 651725, 2012; in the data active = activity change below about -65%; inconclusive = about -30% to -65%; inactive = above about -30%; note: % is set by controls: 0 for no effect and ±100 for the full control effect
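GST-Six1 + His-Eya2 (5X stock: 250/500 nM); Tris pH 8.0, 300 mM NaCl, 0.05% BSA, 0.02% Tween 20; GSH donor/Ni acceptor beads; 1 h 37 °C dark; AlphaScreen readout.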
* hit, by the source's call; ? = inconclusive; . = no result given; [ ] = remark or other dose.

CtBP-E1A blk	gsp antag	gsp ag	D2 potentiator	D2 agonist	Six1-Eya2 blk	SMILES
4	2%	29%	-13	-0.8	15	Cc1ccc(CN2CCN(Cc3ccc(O)cc3)CC2CCO)o1 (stereo not given)
-17	1%	1%[15.4 µM]	-3	-6.2	2	c1ccc(-c2nnc3n2-c2ccccc2SC3)cc1
2	6%	2%	-3	-0.5	10	CCn1cc(S(=O)(=O)NCCc2ccc(F)cc2)cn1
-1	-10%	-33%	-2	2.5	1	Cc1ccc(S(=O)(=O)N2CCCC(C(=O)Nc3ccc(C(=O)O)cc3)C2)cc1Cl (stereo not given)
1	7%	18%	-1	-2.5	-10	Cc1csc(NC(=O)c2ccc(S(=O)(=O)N3CCN(C)CC3)cc2)n1
-2	1%	-9%[15.4 µM]	2	-3.1	-8	CC(=O)N(Cc1ccccc1)Cc1nc2sc(C)c(C)c2c(=O)[nH]1
10	3%	-34%[inhibitor]	-5	-1.3	5	O=C(COc1ccc(S(=O)(=O)N2CCCCC2)cc1)N1CCCCCC1
3	-12%	4%	-22	-3.4	-23	COC(=O)C1=C(C)N(CCc2ccccc2)C(=O)/C1=C\c1ccco1
-10	9%	-11%[15.4 µM]	-9	-2.8	1	CCN1CCN(CCCN(Cc2ccco2)C(=S)Nc2cccc(Cl)c2C)CC1
4	9%	19%	-15	-2.8	-1	CC1CC(=O)c2cnc(NCc3ccco3)nc2C1 (stereo not given)
1	12%	46%	-10	2.4	3	O=C(CN1CCN(CC(=O)Nc2cccc(F)c2)CC1)Nc1ccc(-c2ccccc2)cc1
-15	0%	6%	-31	-5.6	-11	CSc1cccc(CN2CCC(Oc3cccc(C(=O)N4CCCC4)c3)CC2)c1
5	9%	-1%	-2	0.8	4	OC1CCCC1NCc1ccnc2cc(Cl)ccc12 (stereo not given)
-5	-19%	31%	-10	1.3	-3	CCOC(=O)Cc1csc(NC(=O)COc2ccc(N(C)S(=O)(=O)c3ccc(C)cc3)cc2)n1
-5	12%	?	-8	-4.3	2	CCOC(=O)N1CCN(C(=O)CSc2nc(=O)n3cccc(C)c3n2)CC1

Other results follow.
CtBP-E1A blk	gsp antag	gsp ag	D2 potentiator	D2 agonist	Six1-Eya2 blk	SMILES
5	-7%	?	2	-3.5	1	O=C(O)C1CC(=O)N(c2ccc(Br)cc2)C1 (stereo not given)
2	19%	-10%	0	8.5	0	CC1=C(C(=O)OCCNC(=O)c2cccnc2)C(c2cccc([N+](=O)[O-])c2)C(C(=O)OCCN(C)C)=C(C)N1 (stereo not given)
-21	-1%	22%	-2	5.0	-9	Cc1cc(C)n(C(=O)CNC(=O)c2cccc(F)c2)n1
-18	-1%	-16%[15.4 µM]	-2	-0.5	-12	COc1cc(OC)cc(OC(=O)c2cccc(S(=O)(=O)N3CCN(C)CC3)c2)c1
0	12%	3%	-20	-4.4	12	COc1ccc(Cn2c(C)c(C)c(C#N)c2NC(=O)Nc2ccc(Cl)cc2)cc1
1	-21%	-43%[inhibitor]	12	-0.6	0	Cc1ccc(C(=O)/C=C/c2ccco2)c(O)c1
-18	1%	?	-15	3.0	11	Cc1ccc(-c2c(C)nn3c(N4CCOCC4)cc(C)nc23)cc1
7	6%	?	-18	0.5	4	CCn1ncc(CN2CCN(Cc3ccc(OC)c(C)c3C)C(CCO)C2)c1C (stereo not given)
-16	-14%	8%	-11	-3.0	-13	CCOC(=O)C1=C(C)N=c2s/c(=C\c3ccc(C(=O)O)cc3)c(=O)n2C1c1ccc(F)cc1 (stereo not given)
-6	?	.	3	-0.7	-6	COc1ccc(CN2CC(=O)N3[C@H]4c5ccccc5OC[C@@H]4[C@H](c4ccccc4)[C@]3(C)C2=O)cc1
.	1%	2%	-7	-1.7	18	C=CCC1(C#N)C(=S)NC(C)=C(C(=O)OCC)C1c1ccccc1 (stereo not given)
2	-16%	-5%[15.4 µM]	-2	1.2	-14	CCOC(=O)c1ccc(NC(=O)c2ccc(OC(C)C)c(OC)c2)cc1
-3	?	12%[15.4 µM]	-3	-5.6	-14	CCCN(CC(=O)Nc1ccccc1C)C(=O)C1CCN(c2ncnc3sc(C)c(C)c23)CC1
-8	?	2%	-8	-4.8	2	N#CCCn1cc(C=C(C#N)C#N)c(-c2ccc(Cl)cc2)n1
8	2%	-6%	-5	-0.3	4	CCOC(=O)C1C(=O)Nc2nc3ccccc3n2C1C(C)C (stereo not given)

Additional entries
CtBP-E1A blk	gsp antag	gsp ag	D2 potentiator	D2 agonist	Six1-Eya2 blk	SMILES
15	-5%	-1%	0	1.9	8	Cc1ccc(C=Nc2ccccc2C(=O)Nc2ccccc2)cc1
2	-19%	6%	-4	-0.6	4	CCCCn1c(-c2cccc(F)c2)nc2c1c(=O)[nH]c(=O)n2CC(C)C
0	5%	-1%[15.4 µM]	5	2.8	3	COc1ccc(NC(=O)CSCc2ccccc2C)cc1
1	4%	19%	-7	2.2	2	COc1ccccc1C(=O)NCCCn1cc(Br)c(C)n1
1	.	.	-2	-2.5	-1	O=S1(=O)C[C@@H](N2CCCC2)[C@H](COCc2ccccc2)N1
4	15%	18%	-24	-1.0	-1	Cc1ccccc1CC(=O)NC1CCN(Cc2ccccc2)CC1
-23	4%	.	-7	-3.7	0	CC1(C)CC[C@]2(C(=O)O)CC[C@]3(CO)C(=CCC4[C@@]5(C)C[C@H](O)[C@H](O)[C@@](C)(C(=O)O)C5CC[C@]43C)[C@@H]2C1 (stereo not given in full)
2	9%	2%	-15	-2.7	1	Cc1cc(C)cc(NC(=O)C2CCCN2/C=C/C(=O)C(F)(F)F)c1 (stereo not given)
-29	-15%	3%	-11	-2.8	?	O=[N+]([O-])c1cccc(/C=N\N2CCN(Cc3ccccc3Cl)CC2)c1
9	0%	5%	-15	2.1	4	COc1cccc(NC(=S)NCc2ccncc2)c1
-24	?	4%	-4	-2.6	-18	Cc1cc(=O)[nH]c(SCC(=O)Nc2ccccc2C#N)c1C#N
3	0%	22%	3	-0.3	1	O=c1nc(SCc2cccc(C(F)(F)F)c2)nc2ccccn12
1	-4%	.	-11	-3.1	1	NC(=O)CC(NC(=O)c1cccc(Br)c1)c1ccc(NCC2CC2)c([N+](=O)[O-])c1 (stereo not given)
.	9%	12%	-7	-5.3	12	Cc1cc(C)c(NC(=O)COC(=O)c2c(C)noc2C)c(Cl)c1
-8	1%	16%	-4	-4.3	5	CC(=O)/C=C\c1ccccc1OC(=O)c1cc2ccccc2oc1=O

More records
CtBP-E1A blk	gsp antag	gsp ag	D2 potentiator	D2 agonist	Six1-Eya2 blk	SMILES
1	-3%	16%[15.4 µM]	-21	-9.4	-14	CCc1ccc(-c2nc(SCC(=O)NC3CCS(=O)(=O)C3)n[nH]2)cc1 (stereo not given)
0	2%	-27%	-1	2.8	2	C=C(C(=O)O)C1CCC2(C)CCCC(C)(O)C2C1 (stereo not given)
-5	6%	?	-2	4.9	0	CCn1c(SCC(=O)c2ccc3c(c2)Cc2ccccc2-3)nnc1-c1ccc(N)cc1
-9	-15%	10%	-10	-2.8	-6	CCOC(=O)C1=C(C)NC(SCC(N)=O)=C(C#N)C1c1cccs1 (stereo not given)
3	10%	-15%	-14	-3.4	-8	O=C(NC(=S)Nc1ccc2[nH]c(=O)[nH]c2c1)c1ccccc1[N+](=O)[O-]
0	-12%	1%[15.4 µM]	11	-3.2	5	CC1CN(C(=O)COC(=O)COc2ccc(C#N)cc2)CC(C)O1 (stereo not given)
-1	1%	16%	-4	-1.2	17	NC(=O)c1ncc(C(F)(F)F)cc1Cl
1	-3%	10%	-4	-5.5	9	O=c1[nH]cc(CN2CCOCC2)c(=O)[nH]1
.	3%	13%	-4	-3.0	-13	Cc1ccn(CCC(=O)Nc2ccc3c(c2)OCO3)n1
2	9%	-33%[inhibitor]	-4	0.1	1	CCC(C)[C@H]1CN=C(N)N1CCc1cccc(F)c1 (stereo not given in full)
-17	10%	-18%	-4	1.2	-8	Cc1nc2cc(NC(=O)NCCC3=CCCCC3)ccc2o1
2	-8%	-2%[15.4 µM]	4	-5.6	-7	CCOC(=O)N1CCN(C(=O)CSC2=NS(=O)(=O)c3cc(Cl)ccc3N2)CC1
15	10%	-3%	10	-1.2	1	CCCCN(CCCC)C1=Nc2ccccc2N/C1=C(/C#N)C(=O)OCC
-3	-12%	-5%[15.4 µM]	10	2.8	-11	CCCC(=O)NC(=S)c1c(C)n(C)n(-c2ccccc2)c1=O
0	1%	-27%	-4	-0.8	7	O=C(O)CCCn1cc(NC(=O)c2ccco2)cn1

Record cards (already shown). Order of values: CtBP-E1A blk | gsp antag | gsp ag | D2 potentiator | D2 agonist | Six1-Eya2 blk
Profile of CCOC(=O)c1ccc(NC(=O)c2ccc(OC(C)C)c(OC)c2)cc1 → 2 | -16% | -5%[15.4 µM] | -2 | 1.2 | -14
Profile of CCc1ccc(-c2nc(SCC(=O)NC3CCS(=O)(=O)C3)n[nH]2)cc1 (stereo not given) → 1 | -3% | 16%[15.4 µM] | -21 | -9.4 | -14
Profile of CCOC(=O)N1CCN(C(=O)CSC2=NS(=O)(=O)c3cc(Cl)ccc3N2)CC1 → 2 | -8% | -2%[15.4 µM] | 4 | -5.6 | -7
Profile of CC1CC(=O)c2cnc(NCc3ccco3)nc2C1 (stereo not given) → 4 | 9% | 19% | -15 | -2.8 | -1

Other results.
CtBP-E1A blk	gsp antag	gsp ag	D2 potentiator	D2 agonist	Six1-Eya2 blk	SMILES
41	13%	-2%[15.4 µM]	15	1.5	0	O=C(CCc1nc2ccccc2s1)OCc1ccccc1F
6	4%	-41%[inhibitor][15.4 µM]	-4	0.2	-1	O=C(O)CCC(=O)Nc1ccc(-n2ccc(C(F)(F)F)n2)cc1
-5	4%	9%[15.4 µM]	-8	-5.4	-1	COc1cccc(NC(=O)NCc2ccc(F)cc2)c1
-22	-1%	-1%[15.4 µM]	-5	-1.7	-11	CC1=CC(=C2C(=O)c3ccccc3C2=O)C=C(C)N1Cc1ccco1
3	-21%	-5%[15.4 µM]	-29	-0.9	-11	O=C(/C=C/c1cccc(F)c1)Nc1ccc(S(=O)(=O)N2CCOCC2)cc1
